Bioassay records as filed in PubChem.
2A firefly: lowers the firefly signal of an FMDV 2A StopGo reporter. HEK cells with a luciferase reporter of 2A StopGo recoding. AID 1745856. 0.23% of 120,000 active. Potency, µM (series often up to 57.5 µM), without a hit: at the top dose signal change, negative = less light; active = well fitted falling curve with a large enough effect; inconclusive = small, poorly fitted or top-dose-only effect; inactive = no such curve, though single readings can be large or run the other way; also: nearly all actives have a fitted effect of over 60% in size; overnight with compound
StopGo RLuc: lowers the Renilla signal of an FMDV 2A StopGo reporter; HEK cells with a luciferase reporter of 2A StopGo recoding; 0.32% of 120,000 active; Potency, µM (doses to about 57.5 µM), for the others: at the highest dose signal change, negative = less light; active means well fitted falling curve with a large enough effect; inconclusive means small, poorly fitted or top-dose-only effect; inactive means no such curve, though single readings can be large or run the other way; also: nearly all actives have a fitted effect of over 55% in size; overnight with compound
The depositor's hits bear a star; u = inconclusive; [ ] = another dose, or the depositor's remark. % is scaled to controls: 0 for no effect and ±100 for the full control effect; potency is read from the fitted curve at half-maximal effect.

SMILES	2A firefly	StopGo RLuc
Cc1ccc(Cl)cc1N(C)C(=O)c1cc2c(Cl)nc3ccccc3c2s1	-11%	-2%
Cc1nc2sc(C(=O)OCC(=O)Nc3ccc(C(C)C)cc3)c(C)c2c(=O)[nH]1	8%	-10%
CC(NC(=O)c1ccc(CS(C)(=O)=O)cc1)c1ccccc1 (stereo not drawn)	3%	1%
COc1ccc(N2CCCCS2(=O)=O)cc1S(=O)(=O)NCCc1ccccc1F	15%	u
Cc1ccc(-c2nc3ccccc3n2Cc2ccc(F)cc2)o1	0%	16%
Cc1ccc(CNC(=O)c2ccc(-n3cnc4cccnc43)cc2)cc1	4%	-2%
COc1ccc2c(c1)CCc1sc(NC(=O)c3cccc(Br)c3)nc1-2	-5%	-12%
CCOC(=O)c1cc(NC(=O)c2ccc(F)cc2)c(=O)n2c1oc1ccccc12	11%	-8%
CC1(C)CC(NC(=S)Nc2cccc(C(F)(F)F)c2)CC(C)(C)N1	1%	2%
COc1ccc(CCOC(=O)c2cc(S(=O)(=O)N3CCCCC3)ccc2N2CCOCC2)cc1	-4%	34%[activator]
C=C(Cl)COc1ccccc1C(N)=O	-4%	-9%
O=C(O)CCc1nc2ccccc2[nH]1	19%[11.5 µM]	-3%
COc1cc(NC(=O)c2cc(S(=O)(=O)N3CCc4ccccc43)cn2C)cc(OC)c1OC	-5%	2%
Cn1ccnc1C(NC(=O)c1ccc[nH]1)c1ccccc1 (stereo not drawn)	5%	-1%
N#CCCn1c(=O)c2c(ncn2C2CCCC2)n(Cc2ccccc2)c1=O	1%	-2%
CCc1cnc2c(c1SC(C(C)=O)C(=O)N(C)C)c(=O)n(C)c(=O)n2C (stereo not drawn)	-7%	-14%
CC(c1cc2ccccc2o1)N(C)S(=O)(=O)c1cccs1 (stereo not drawn)	24%	4%
Cc1ccc(-c2cn3c(n2)sc2cc(C(=O)NC4CCCc5ccccc54)ccc23)cc1 (stereo not drawn)	77%[activator]	40%[activator]
COc1ccc(-c2nnc(SCC(=O)Nc3cccc(C(F)(F)F)c3)nc2-c2ccc(OC)cc2)cc1	21%	-12%
CC(=O)c1ccc(N2CCN(c3ccc(NC(=O)c4cccs4)cc3C(=O)O)CC2)cc1	-14%	21%
Cc1cc(CNC(=O)COc2ccc(C#N)cc2)c2ccccc2n1	-21%	-30%
COc1ccccc1N1CCN(c2nc(-c3ccc(C)cc3)nc3ccccc23)CC1	-23%	0%
Cc1ccc(/C=N/NS(=O)(=O)c2ccc(C)c([N+](=O)[O-])c2)o1	3%	193%[activator]
Cc1ccc(C(=O)C(Cl)C(=O)c2ccc(C)cc2)cc1	133%[activator]	49%[activator]
CCC(=O)Nc1ccc2nc(SCCOc3cccc(C)c3)sc2c1	-4%	-5%

(further entries)
SMILES	2A firefly	StopGo RLuc
C/C(=N/Nc1ccc(Cl)c(Cl)c1)c1ccc(C#N)cc1	0%	-1%
CCS(=O)(=O)NCC(c1ccco1)N1CCN(c2ccc(F)cc2)CC1 (stereo not drawn)	-27%	-7%
N#Cc1ccccc1COC(=O)C1COc2ccccc2O1 (stereo not drawn)	2%	6%
O=Cc1cccn1-c1cc(Cl)ccc1Cl	-5%	-2%
CCOc1ccc(NC(=O)CSc2nc(-c3ccc(F)cc3)cc(C(F)(F)F)c2C#N)cc1	-5%	-9%
O=S(=O)(NCCO)c1ccc(Cl)c(Cl)c1Cl	3%	29%
O=C(Nc1ccccc1)c1cc2cc(Br)ccc2oc1=O	25%	-13%
Nc1ccc(/C=C/C(=O)c2ccc(Cl)cc2)cc1	45%[activator]	39%[activator]
COc1ccccc1NC(=O)/C(C#N)=C/c1c[nH]c2ccccc12	67%[activator]	-2%
O=C(CSc1ccc2c(c1)OCCCO2)c1ccc[nH]1	0%	27%
CC(CNC(=O)CCS(=O)(=O)c1ccc2c(c1)oc(=O)n2C)c1ccccc1 (stereo not drawn)	-16%	-11%
O=C(/C=C/c1cccc(O)c1)c1cccc(Br)c1	62%[activator]	31%
CC(C)Cc1ccc(C(C)(N)C(=O)O)cc1 (stereo not drawn)	2%	-5%
Cc1ccc(C(=O)NCCC(C)C)cc1NC(=O)c1nsc2ccccc12	36%[activator]	41%[activator]
CCS(=O)(=O)N1CC(=O)N(c2cccc(Cl)c2)C(C)(C(=O)NC2CCCCCC2)C1 (stereo not drawn)	-18%	6%
O=C(Cn1c(-c2cccs2)cc2ccccc21)NCCc1ccc(Cl)cc1	0%	-17%
N#C/C(=C\c1ccc(O)c(Cl)c1)c1nc2ccccc2[nH]1	88%[activator]	30%
CC(CNC(=O)CCc1nc2ccccc2[nH]1)N1CCCCC1 (stereo not drawn)	-2%	-8%
Cc1ccccc1C(=O)Oc1cccc(C)c1C	28%	11%
COc1ccc(-n2c(C)c(C(C)=O)c3cc(OCC(N)=O)ccc32)cc1	0%	2%
COc1cc(C(=O)Nc2cccc3cccnc23)cc(OC)c1C	16%	4%
O=C1NC2(CCCCC2)N(C(=O)c2ccccc2F)C2=C1CCCC2	-15%	5%
Cc1ccc(NC(=O)CN(C)C(=O)c2nn(-c3ccccc3)c3c2CCC3)cc1	3%	17%
Cc1cccc(/C=C(/C(=O)NC2CC2)c2cccs2)c1	0%	9%
CCOC(=O)C1(C)C=C(Nc2ccc(NC(C)=O)cc2)C(=O)N1c1ccc(NC(C)=O)cc1 (stereo not drawn)	24%	20%

Continuation.
SMILES	2A firefly	StopGo RLuc
COc1cc(Br)cc2cc(-c3nc(-c4ccc(C(F)(F)F)cc4)no3)c(=O)oc12	-4%	0%
C/C(CCc1oc2ccccc2c1-c1ccc(C)o1)=N\O	13%	15%
CC(=O)Nc1ccc(-c2csc(NC3CCCC3)n2)c(F)c1	179%[activator]	9%
COc1ccc(NC(=O)C2CCCN2S(=O)(=O)c2ccc3nc(-c4ccccc4)[nH]c3c2)cc1 (stereo not drawn)	4%	-1%
CCOc1ccc(C)cc1S(=O)(=O)n1ccnc1C	-3%	58%[activator]
CCOc1ccccc1NC(=O)CSc1nc(-c2cccs2)cc(C(F)(F)F)n1	-15%	-6%
Cn1c(=O)c2c(ncn2CC(=O)Nc2ccc3c(c2)OCO3)n(C)c1=O	0%	-11%
NCc1ccc(NC(N)=O)cc1	-3%	7%
CCN(Cc1ccccc1)C(=O)COc1ncnc2ccc(Br)cc12	-7%	4%
Cc1cccc(C(C)C)c1NC(=O)CCc1ncc(-c2ccccc2)o1	19%	-7%
Cc1csc2nc(-c3ccc(NS(=O)(=O)c4cccs4)cc3)cn12	0%	56%[activator]
O=C(NCCC(=O)N(Cc1ccccc1F)C1CC1)c1ccc(Cl)cc1	9%	9%
CN1C(=O)Cc2cc(-c3csc(NC(C)(C)C)n3)ccc21	208%[activator]	0%
CC(=O)c1cccc(Nc2ncnc3c2cnn3-c2cccc(Cl)c2)c1	8%	-14%
O=C(O)CCCC1OC(CCCC(=O)O)OC(CCCC(=O)O)O1 (stereo not drawn)	18%	6%
CCOc1ccc(NC(=O)C2CCN(C(=O)N3CC(C)Oc4ccc(Cl)cc43)CC2)cc1 (stereo not drawn)	13%	-14%
CSc1ccc(Cl)c(C(=O)Nc2ccc(F)c(F)c2)c1	-5%	-14%
Cc1ccc(C(=O)n2nc(NCc3ccccc3)nc2NCc2ccccc2)cc1	2%	7%
COc1cc(-c2nc3ccc(Cl)cn3c2Nc2ccc3c(c2)OCO3)ccc1O	32%[activator]	48%[activator]
CC1(c2ccc3c(c2)OCO3)NC(=O)N(Cc2coc(-c3cccs3)n2)C1=O (stereo not drawn)	12%	17%
COc1ccccc1CNC(=O)CN1N=C(c2ccccc2)CCC1=O	53%[activator]	29%
S=C(NCCSc1ccc(Cl)cc1)Nc1cccc(Cl)c1	-20%	107%[activator]
O=C(Nc1nnc(SCc2ccccc2)s1)c1cc(=O)c2ccccc2o1	7%	-3%
COCCNC(=O)c1ccc(C(C)(C)C)cc1	166%[activator]	10%
Cc1ccc(Nc2nnc(-c3ccc(C)c(S(=O)(=O)NCc4nc5ccccc5[nH]4)c3)c3ccccc23)cc1	176%[activator]	-6%

(further entries)
SMILES	2A firefly	StopGo RLuc
C#CCN(C)Cc1ccccc1	-8%[11.5 µM]	-15%
Cc1ccc2c(c1)C(c1ccccc1)=Nc1ccc(C)cc1C(c1ccccc1)=N2	8%	6%
O=C(O)CCc1nn2c3ccccc3n(CCOc3ccccc3Cl)c2nc1=O	12%	3%
O=C1C2CCCN2C(=O)N1Cc1coc(-c2ccccc2)n1 (stereo not drawn)	125%[activator]	1%
CCOCCCNc1nc2c(c(=O)[nH]c(=O)n2C)n1Cc1ccccc1Cl	4%	3%
Cc1ccc(CNC(=O)c2sc3nc4n(c(=O)c3c2C)CCCC4)cc1	11%	-2%
COc1cc(/C=C/C(=O)C23CC4CC(CC(C4)C2)C3)cc(Br)c1O	9%	-13%
O=C(NCCNc1ccccn1)Nc1ccccc1	22%	-1%
COc1ccc(CNCCc2ccc(Cl)cc2)cc1	7%	-27%
COc1ccc(Br)cc1CC1C(=O)Nc2ccccc21 (stereo not drawn)	u	u
COc1ccc(C(=O)OC2CCN(C)CC2)cc1	37%[activator]	-2%
Cc1ccc(CNC(=O)C2CCCN(c3nc4ccccc4n4cccc34)C2)cc1 (stereo not drawn)	0%	19%
Cc1nc(N2CCC(C)CC2)ncc1-c1cc(=O)[nH]c(N2CCc3ccccc3C2)n1	-9%	0%
CCN(CC)CCCNCc1ccccc1	8%	-10%
COc1ccccc1/C=C/c1nc(C#N)c(NCc2ccco2)o1	148%[activator]	45%[activator]
CC(C)NC(=O)CSc1cn(CC(=O)N2CCCCCC2)c2ccccc12	1%	8%
CCOc1cc(C2C(C#N)=C(N)Oc3n[nH]c(-c4ccccc4)c32)ccc1O (stereo not drawn)	10%	2%
Cn1cc(C(C(=O)O)N2CCN(c3ncccn3)CC2)c2cc(C(=O)O)ccc21 (stereo not drawn)	-4%	-8%
COc1ccc(NS(=O)(=O)c2cc(Br)cc3c2N(C(=O)C2CC2)CC3)cc1OC	u	110%[activator]
Cc1ccc2[nH]c(C)c(C(O)CN3CCCCC3)c2c1 (stereo not drawn)	-11%	-12%
Cc1cc(C)nc(NC(c2ccsc2)c2cc(C)sc2NC(=O)c2ccco2)n1 (stereo not drawn)	0%	9%
COc1cccc(Oc2nc(C)nc3c2oc2ccccc23)c1	24%	-12%
Cc1cc(NS(=O)(=O)c2ccc(NC(=O)COc3ccc(Br)cc3C)cc2)no1	43%[activator]	130%[activator]
CCOc1ccc(CNC(=O)CCS(=O)(=O)c2cc3c(cc2Cl)NC(=O)CO3)cc1OC	15%	-4%
CC(=O)C1=C(c2ccc(Br)cc2)N(C(C)=O)n2c(nnc2C2CCCCC2)S1	-23%	-18%

(more compounds)
SMILES	2A firefly	StopGo RLuc
CCCCn1nc(C(=O)N(C)CC(=O)Nc2cccc(F)c2)c2ccccc2c1=O	24%	30%[activator]
CC1(c2ccccc2)OC(C(=O)O)=CC1=O (stereo not drawn)	-6%	-1%
CCc1ccc(-c2csc(/C(C#N)=C/Nc3ccccc3CC)n2)cc1	8%	-12%
Cc1cnc(NC(=O)CCc2ncc(-c3ccccc3F)o2)s1	1%	-7%
Cc1cc(SCC(=O)Nc2ccc(F)c(F)c2)nc2ccccc12	14%	15%
CCOc1ccccc1NC(=O)C(CC(C)C)NS(=O)(=O)c1ccc2c(c1)CCN2C(C)=O (stereo not drawn)	-11%	63%[activator]
COc1ccc(CC(=O)Nc2cc(-c3cn4cccnc4n3)ccc2C)cc1OC	u	0%
CCOC(=O)CSc1nc2ccccc2c(=O)n1-c1cccc(C)c1	1%	-8%

Part of the list above in order of molar mass, smallest number first.
SMILES	2A firefly	StopGo RLuc
CC1(c2ccccc2)OC(C(=O)O)=CC1=O (stereo not drawn)	-6%	-1%
CCN(CC)CCCNCc1ccccc1	8%	-10%
Cc1ccc2[nH]c(C)c(C(O)CN3CCCCC3)c2c1 (stereo not drawn)	-11%	-12%
COc1cccc(Oc2nc(C)nc3c2oc2ccccc23)c1	24%	-12%
COc1ccccc1/C=C/c1nc(C#N)c(NCc2ccco2)o1	148%[activator]	45%[activator]
Cc1cnc(NC(=O)CCc2ncc(-c3ccccc3F)o2)s1	1%	-7%
Cc1cc(SCC(=O)Nc2ccc(F)c(F)c2)nc2ccccc12	14%	15%
CCc1ccc(-c2csc(/C(C#N)=C/Nc3ccccc3CC)n2)cc1	8%	-12%
CCOc1cc(C2C(C#N)=C(N)Oc3n[nH]c(-c4ccccc4)c32)ccc1O (stereo not drawn)	10%	2%
CC(C)NC(=O)CSc1cn(CC(=O)N2CCCCCC2)c2ccccc12	1%	8%
Cn1cc(C(C(=O)O)N2CCN(c3ncccn3)CC2)c2cc(C(=O)O)ccc21 (stereo not drawn)	-4%	-8%
COc1ccc(CC(=O)Nc2cc(-c3cn4cccnc4n3)ccc2C)cc1OC	u	0%
CCCCn1nc(C(=O)N(C)CC(=O)Nc2cccc(F)c2)c2ccccc2c1=O	24%	30%[activator]
Cc1nc(N2CCC(C)CC2)ncc1-c1cc(=O)[nH]c(N2CCc3ccccc3C2)n1	-9%	0%
Cc1cc(C)nc(NC(c2ccsc2)c2cc(C)sc2NC(=O)c2ccco2)n1 (stereo not drawn)	0%	9%
CC(=O)C1=C(c2ccc(Br)cc2)N(C(C)=O)n2c(nnc2C2CCCCC2)S1	-23%	-18%
CCOc1ccccc1NC(=O)C(CC(C)C)NS(=O)(=O)c1ccc2c(c1)CCN2C(C)=O (stereo not drawn)	-11%	63%[activator]
Cc1cc(NS(=O)(=O)c2ccc(NC(=O)COc3ccc(Br)cc3C)cc2)no1	43%[activator]	130%[activator]
COc1ccc(NS(=O)(=O)c2cc(Br)cc3c2N(C(=O)C2CC2)CC3)cc1OC	u	110%[activator]
